# hNpr1 antagonist: antagonists of human natriuretic peptide receptor Npr1 | actives 1.6% (n = 76,000) | HEK293 hNpr1 GloSensor cGMP, ANP-stimulated luminescence | Potency, µM (series often up to 46.3 µM), inactives show top-dose activity change, negative = inhibition, most hits filed as inhibitors | P16066 | AID 1347048; active = well fitted inhibition curve with a large enough effect; inconclusive = small, poorly fitted or top-dose-only effect; inactive = no such curve, though single readings can be large or run the other way;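 note: nearly all actives have a fitted effect of over 60% in size; nearly all hits also lower the signal before the agonist is added; a reference antagonist and vehicle were the controls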
# Target sequence (P16066 whole entry, looked up): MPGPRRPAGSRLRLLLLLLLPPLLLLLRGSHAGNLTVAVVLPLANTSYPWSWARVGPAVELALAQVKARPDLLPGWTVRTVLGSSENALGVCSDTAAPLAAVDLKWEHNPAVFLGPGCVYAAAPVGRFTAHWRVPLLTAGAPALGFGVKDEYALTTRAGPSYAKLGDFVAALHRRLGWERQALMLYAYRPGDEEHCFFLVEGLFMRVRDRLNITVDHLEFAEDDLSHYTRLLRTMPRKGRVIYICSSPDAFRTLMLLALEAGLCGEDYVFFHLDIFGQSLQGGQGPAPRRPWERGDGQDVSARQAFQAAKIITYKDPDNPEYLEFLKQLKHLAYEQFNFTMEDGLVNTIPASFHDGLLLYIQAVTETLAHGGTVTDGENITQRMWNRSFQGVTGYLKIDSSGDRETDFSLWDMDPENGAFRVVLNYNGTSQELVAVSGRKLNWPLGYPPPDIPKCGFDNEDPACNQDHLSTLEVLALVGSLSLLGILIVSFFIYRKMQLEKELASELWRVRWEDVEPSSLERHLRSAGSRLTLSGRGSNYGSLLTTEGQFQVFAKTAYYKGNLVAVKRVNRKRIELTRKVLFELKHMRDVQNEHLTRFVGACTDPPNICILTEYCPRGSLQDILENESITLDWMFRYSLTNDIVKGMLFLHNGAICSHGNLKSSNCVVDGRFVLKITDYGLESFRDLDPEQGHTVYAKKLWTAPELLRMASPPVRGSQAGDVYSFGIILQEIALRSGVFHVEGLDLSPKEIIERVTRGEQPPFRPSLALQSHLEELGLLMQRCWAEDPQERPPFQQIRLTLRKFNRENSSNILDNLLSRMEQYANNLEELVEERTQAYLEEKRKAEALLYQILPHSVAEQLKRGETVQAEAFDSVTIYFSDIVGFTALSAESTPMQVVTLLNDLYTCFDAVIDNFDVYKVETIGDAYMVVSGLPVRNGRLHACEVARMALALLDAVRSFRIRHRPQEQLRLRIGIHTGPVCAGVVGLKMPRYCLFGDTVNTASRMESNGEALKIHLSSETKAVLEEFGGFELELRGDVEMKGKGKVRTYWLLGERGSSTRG
#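 Compound pre-incubated 30 min at room temperature on GloSensor-loaded HEK293 cells stably carrying hNpr1 and the pGS-40F cGMP biosensor. Stimulation uses hNppA at 0.1 nM final; luminescence is taken at baseline and 20 min post-agonist.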
# An asterisk follows results filed as active; ? = inconclusive; & = joins results of further samples; [ ] = dose if it differs, or a comment. % is set by controls: 0 for no effect and ±100 for the full control effect; potency is the fitted concentration of half-maximal effect.
compound	hNpr1 antagonist
CN(C)c1cccc(C(=O)NC2CCCN(c3cc(-c4ccccc4)[nH]n3)C2)c1 (configuration not stated)	-11%
COc1cccc(C(=O)N2CCC3(CC2)N=C(c2ccc(Cl)cc2)NO3)c1	?
COCCOC1CCOC2(CCN(C(=O)c3cccc(F)c3)CC2)C1 (configuration not stated)	-3%
CCS(=O)(=O)Nc1ccc(C2(C(=O)NCc3ccc(F)cc3F)CCCCC2)cc1	-14%
CC(=O)c1cccc(NC(=O)CN2C(=O)NC3(CCC(C)CC3)C2=O)c1 (configuration not stated)	-17%
O=C1N2CCCC2CN1C1CCN(Cc2ccccc2)CC1 (configuration not stated)	6%[70.6 µM]
CS(=O)(=O)Nc1ccc([C@H]2OCC(=O)N(C3CCOCC3)[C@@H]2CO)cc1	-1%[70.6 µM]
COc1cc(NC(=O)Cn2c(N(C)Cc3ccccc3)nc(C)cc2=O)cc(OC)c1OC	7.1µM*
O=C(NCCC1=CCCCC1)C1CCN(C(=O)c2ncn3c2COC(c2ccc(F)cc2)C3)CC1 (configuration not stated)	-6%
CCC(CC)C(=O)N1CCc2nc(OCCOC)ccc2C1	3%
COCCOc1ccc2c(n1)CCN(C(=O)Cc1ccc(C)cc1)C2	-2%
CC(=O)Oc1c(-c2ccc(NC(=O)c3ccccc3)cc2)c(-c2cccc(F)c2)nn1-c1ccccc1	-7%

# A stretch from further up:
compound	hNpr1 antagonist
CCC(CC)C(=O)N1CCc2nc(OCCOC)ccc2C1	3%
COCCOc1ccc2c(n1)CCN(C(=O)Cc1ccc(C)cc1)C2	-2%

# (further entries)
compound	hNpr1 antagonist
O=C1CCN(Cc2cccnc2)CCCC(C(=O)N2CCN(Cc3ccccc3F)CC2)CCN1 (configuration not stated)	1%
O[C@]12CCNC[C@H]1CN(Cc1ccc(C(F)(F)F)cc1F)CC2	6%
Cn1ccc2ccc(C(=O)Nc3ccc4c(c3)C(=O)N3CCC[C@H]3C(=O)N4)cc21	-2%
CCCNC(=O)N1CCCC(c2nn[nH]n2)C1 (configuration not stated)	3%
Cc1noc([C@@H](C)NC(=O)C2CCCCC2)c1C(=O)O	1%[70.6 µM]
O=C(c1cnccn1)N1CC(c2nnc(-c3ccncc3)o2)C2(CCOCC2)C1 (configuration not stated)	-1%
Cc1ccc(NC(=O)c2ccc(N3CC4CC(C3)[C@H]3CCCC(=O)N3C4)nc2)c(C)c1 (some centres not stated)	4%
COCc1noc(CC2CCOC3(CCN(C(=O)c4ccc5cc[nH]c5c4)CC3)C2)n1 (configuration not stated)	0%
Cc1c(C(=O)N2C[C@@H](C(=O)O)[C@H](c3ccccc3)C2)sc2nc[nH]c(=O)c12	13%
O=C(NCC1CCOCC1)Nc1cccc(Cl)c1	-2%
COc1ccc(CCC(=O)NC2CCN(C(=O)c3cc4c(=O)[nH]c(C)cn4n3)CC2)cc1	-2%
COc1ccc(-c2noc(-c3cccn3CC(=O)N3CCc4ccccc43)n2)cc1F	5%

# Continued, overlapping the part above by 2 compounds.
compound	hNpr1 antagonist
COc1ccc(CCC(=O)NC2CCN(C(=O)c3cc4c(=O)[nH]c(C)cn4n3)CC2)cc1	-2%
COc1ccc(-c2noc(-c3cccn3CC(=O)N3CCc4ccccc43)n2)cc1F	5%
CN1CCC(Oc2ncccc2C(=O)N2CCOCC2)CC1	-1%
COc1cccc(CN2Cc3cc(NC(=O)c4cccc(OC)c4)ccc3OCC2=O)c1	-15%
CCC1(C(=O)NCc2ccc(C)o2)CCCCC(=O)N1 (configuration not stated)	-12%
O=C(NCCc1ccccn1)[C@@H]1C[C@@H](c2ccc(F)cc2)N(CCOc2ccccc2)C1	1%[70.6 µM]
Cc1nc2c(c(-c3ccc(Cl)cc3)n1)CN(C(=O)c1ccc(C(F)(F)F)cc1)CC2	0%
Cc1nc(N2CCCCC2)n(CC(=O)Nc2cccc(Cl)c2C)c(=O)c1C	3%
C1CCC(c2nc(CCOCC3CCCC3)no2)NC1 (configuration not stated)	-16%
CN(CCNC(=O)C1CCCN(S(C)(=O)=O)CCC(=O)NCC1)C1CCCCC1 (configuration not stated)	1%
COCc1noc(CC2CCOC3(CCN(C(=O)NC4CCCCC4)CC3)C2)n1 (configuration not stated)	2%
CCOC(=O)c1cn(C2CN(S(=O)(=O)Cc3ccc(Cl)cc3)C2)nn1	-11%
O=C1CCN(C(=O)COc2ccccc2)CCCC(c2nc(-c3cnccn3)no2)CCN1 (configuration not stated)	3%
O=C(COc1ccc(Cl)c(Cl)c1)N1CCC2(CCCNC2=O)C1 (configuration not stated)	4%

compound	hNpr1 antagonist
Cc1nn2c(c1-c1cccnc1N1CCOCC1)N(CC1CCOCC1)CCC2	?
CC(=O)Nc1ccc(CN2CCC3(C2)C(=O)Nc2ccccc23)cc1 (configuration not stated)	-4%[70.6 µM]
O=C(c1cccc(F)c1)N1CCN(C(=O)c2nnn3c2COC(c2ccc(F)cc2)C3)CC1 (configuration not stated)	?
Cc1ccccc1C(=O)N1CCn2c(nn(-c3ccncc3)c2=O)C1	-16%[70.6 µM]
Cc1cccc2ncc(C(=O)NCc3cc4n(n3)CCCNC4)c(=O)n12	11%
Cc1cnc(C2CCNC2)n1C(C)C (configuration not stated)	5%
COCCn1cnc2ccc(-c3ccnn3C)nc2c1=O	-1%[70.6 µM]
CCN1C(=O)C2CC3(CCN(C(=O)c4ccc(Cn5cncn5)o4)CC3)CN2C1=O (configuration not stated)	3%
CC(=O)NC[C@H]1CCN(Cc2ccc(C#N)cc2)C[C@H]1N(C)C	4%
O=C([C@@H]1C[C@H](F)CN1C(=O)c1cccs1)N1CCOCC1	3%
CCN(Cc1ccc(C)o1)C(=O)c1cccc(CCC(C)(C)O)c1	-1%
O=C(Nc1cccc(F)c1)N1Cc2[nH]cnc2C[C@H]1c1nc(-c2ccccc2)no1	-19%[70.6 µM]

compound	hNpr1 antagonist
O=C1NCCCCCCN(Cc2ccc(C(F)(F)F)cc2)[C@H]2CCC[C@@H]12	-23%
COc1ccc(C(=O)N[C@H]2[C@H](O)[C@H](O)C[C@@H]2c2ccc(C(F)(F)F)nc2)cc1OC	2%[70.6 µM]
CC(=O)N1CCC(Oc2ccccc2-c2nc(-c3ccccc3)no2)C1 (configuration not stated)	12%
COc1ccc(-c2noc([C@@H]3Cc4nc[nH]c4CN3C(=O)Nc3ccccc3)n2)cc1	?
Cc1noc(C)c1C(=O)N[C@H]1CO[C@H]2[C@@H]1OC[C@H]2OCc1ccccc1	-6%[70.6 µM]
COc1ccc(C(=O)N[C@H]2C[C@H]3C(=O)Nc4ccccc4C(=O)N3C2)cc1	2%[70.6 µM]
O=C(c1ccc(F)cc1F)N1CCC2(CC1)OCC(C(=O)N1CCOCC1)N2C(=O)c1ccccc1 (configuration not stated)	0%
O=C(CC1CCCC1)N1CCC(c2nc(CCOc3ccc(F)cc3)no2)C1 (configuration not stated)	?
COCCN1C(=O)CC[C@]2(C(=O)NCc3cccs3)CCCC[C@@H]12	0%
Cc1ccc(CN2CCc3nc(C4CC4)nc(-c4ccc(O)cc4)c3CC2)cc1	-2%
CCCn1ncc(-c2nc(Cc3cccs3)nn2CC(=O)O)c1C	5%
CCC1Oc2ccc(NC(=O)Cc3cccs3)cc2CN(C2CCCc3ccccc32)C1=O (configuration not stated)	-15%

compound	hNpr1 antagonist
COc1ccc(NC2CCCN(C(=O)C(=O)CC(C)C)C2)cc1OC (configuration not stated)	2%
Cc1cc(S(=O)(=O)N2C[C@@H](F)C[C@H]2C(=O)N2CCc3ccccc3C2)ccc1F	1%
c1cncc(CN2CC[C@H](c3nc4ccccc4[nH]3)C2)c1	-11%[70.6 µM]
CC1(c2cccnc2)N(Cc2ccccc2)C(=O)OC12CCN(C(=O)c1cnccn1)CC2 (configuration not stated)	-9%
CCC(C(=O)N1CCN(c2ccccc2)C(=O)C1)N1Cc2ccccc2C1=O (configuration not stated)	1%
O=C(c1cnc2c(c1)N([S+](=O)([O-])c1cccnc1)CCC2)N1CCC[C@@H]1c1ccc(F)cc1	1%
O=C1NCCCCCCN(C(=O)COc2ccccc2)[C@H]2CCCC[C@@H]12	7%
CCc1cnc(C)nc1N1CCN(Cc2ccccc2F)C(CCO)C1 (configuration not stated)	?
Cc1ccccc1OCc1nc(C2CCOC2)no1 (configuration not stated)	3%
Cc1ccc(S(=O)(=O)NCC2(C)CCOCC2)c(C)c1	-16%
CN(C)C(=O)c1cc(Br)cn2ccnc12	0%&-1%[70.6 µM]
COc1ncccc1CNC[C@H]1Cn2c(-c3ccc(Cl)cc3)cnc2CO1	-24%[70.6 µM]

# As entered above:
# Result for CN(C)C(=O)c1cc(Br)cn2ccnc12 under hNpr1 antagonist: 0%&-1%[70.6 µM]
# Result for Cc1ccccc1OCc1nc(C2CCOC2)no1 (configuration not stated) under hNpr1 antagonist: 3%
# Result for c1cncc(CN2CC[C@H](c3nc4ccccc4[nH]3)C2)c1 under hNpr1 antagonist: -11%[70.6 µM]

# Additional results:
compound	hNpr1 antagonist
O=C1NCCCCCN(S(=O)(=O)c2ccc3c(c2)CCC3)[C@H]2CCCC[C@@H]12	2%
COCC(=O)N1CCOC[C@H](Oc2ccc(C(F)(F)F)cn2)C1	3%[70.6 µM]
COc1ccc(CCN(Cc2ccccn2)C(=O)[C@H]2CCC[C@H](O)C2)cc1	3%
Cn1cc(C(NC(=O)c2ccc3c(c2)ncn3CCO)C2CC(O)C2)cn1 (configuration not stated)	-3%
Cn1c(=O)[nH]cc(CC(=O)N2CCn3nc(Cc4ccccc4)cc3C2)c1=O	4%
COC[C@@H]1CN(C(=O)c2ccoc2)C[C@H]1c1ccncc1	1%
CCn1ncc(N2CCCC(CC(=O)NCc3ccc(Cl)cc3)C2)cc1=O (configuration not stated)	-8%
COC[C@H]1CCCN1C(=O)[C@@H](C)C1CC[C@@]2(C)CC[C@H](NC(=O)c3cncnc3)[C@@H](C)[C@@H]2[C@H]1O (some centres not stated)	4%
CCN1CCN(c2ncnc3c2CN(C2CCC2)C(=O)CN3C)CC1	4%
O[C@@H]1C[C@@H](c2nc(-c3ccccc3)no2)N(Cc2cc3ccccc3o2)C1	2%[70.6 µM]
COc1cccc(CC(=O)N2CCc3nn(C)c(=O)n3CC2)c1	0%
O=C1C[C@H]2CC[C@@H](CN1)N2Cc1ccc(OCc2ccccc2)cc1	?

compound	hNpr1 antagonist
COc1ccc(Cl)cc1C(=O)NCc1nnc2ccc(-c3ccc(Cl)cc3)nn12	-6%
COCCN1C(=O)[C@H]2CN(Cc3cccc(OC(F)(F)F)c3)C[C@H]2C1=O	-2%
O=c1[nH]c(C2CCCN(CC3CCCC3)C2)nc2ccc(F)cc12 (configuration not stated)	0%
CN(C)Cc1nnc(C2CC(NC(=O)c3ccc4c(c3)CCCO4)C2)n1C (configuration not stated)	9%
COC[C@H]1C[C@@H](NC(=O)c2ccccc2)[C@H](O)[C@@H]1O	4%[70.6 µM]
Cc1ccc(S(=O)(=O)NC[C@H]2OC[C@@H](NC3CCOCC3)[C@@H]2O)cc1	4%[70.6 µM]
CC(=O)N(C)CCc1noc(C2CN(C(=O)Cn3c(=O)oc4ccccc43)C2)n1	1%
O=C1[C@@H]2C[C@@H](O)CN2C2(CN(Cc3ccc(OC(F)(F)F)cc3)C2)C(=O)N1Cc1ccccc1Cl	3%
Cc1cc(F)ccc1OC1CN(Cc2ccc(N(C)C)cc2)C1	0%[70.6 µM]
Cc1ccncc1C(=O)N1CCC2(CC1)CC(CO)N(C(=O)c1ccccc1)C2 (configuration not stated)	1%
COc1cccc(NC(=O)C2N(C(C)C)C(=O)C23CCCCC3)c1 (configuration not stated)	-5%
CC1=C[C@@H](CNCC(C)C)[C@H](C(C)C)C[C@H]1Cc1nc2c(C)cccc2[nH]1	-17%[70.6 µM]

compound	hNpr1 antagonist
CCC(=O)N1CCN(c2nc3c(s2)CC(C(=O)N2CCCCC2)CC3)CC1 (configuration not stated)	-4%
CNC(=O)c1noc([C@@H]2CC(F)(F)CN2Cc2cnn(C(C)C)c2)n1	-1%
CCOC(=O)c1ccc(NC(=O)N2Cc3[nH]cnc3C[C@H]2c2nc(-c3ccncc3)no2)cc1	-5%
O=C(NC1CCN(c2cc(-c3cccs3)[nH]n2)C1)c1ccccn1 (configuration not stated)	-10%
COC(=O)CNC(=O)N1CC[C@H]2C(=O)NCCCCCCN(Cc3ccncc3)[C@@H]2C1	4%
c1cnc(Oc2cccc(CN(Cc3ccsc3)CC3CCCO3)c2)nc1 (configuration not stated)	-1%
Cc1nc(C2CCCCN2C(=O)c2ccc(F)cc2)n[nH]1 (configuration not stated)	1%
COc1ccc(-c2ccc(-c3nc(CC(C)C)no3)cn2)c2cccnc12	?
CN(Cc1ccccc1)Cc1nnc2cc(-c3nc(-c4ccccc4)no3)ccn12	2%
COCc1nc(C2CCCN(C(=O)COc3ccccc3)C2)no1 (configuration not stated)	0%
Cc1ccc2c(c1)nc1n2[C@@H](CNS(=O)(=O)Cc2ccccc2)COC1	22µM*
Cc1noc(-c2cn(C3CCN(C(=O)Cc4ccc(F)cc4)CC3)nn2)n1	19%

compound	hNpr1 antagonist
CC(=O)N1CCN(C(=O)C[C@@H]2c3nc(NC(=O)C4CCCCC4)sc3C[C@@H]3[C@](C)(CO)[C@H](O)CC[C@]32C)CC1	0%
C/C=C/CC(=O)N1CCC2(CCN(Cc3cccc(F)c3)CC2)C(CO)C1 (configuration not stated)	5%
O=C(c1ccccc1F)N1CCC(c2nn(-c3ccc(Cl)cc3)c(=O)[nH]2)CC1	-3%
COCC1CN(Cc2ccc(OC)cc2)CC12CCNCC2 (configuration not stated)	-5%

# Screens: PubChem BioAssay, National Center for Advancing Translational Sciences (NCATS)

# Only part of the results is shown (hit frequency here may not be typical).
